Bioassay records from PubChem.
ALR H2O2 inh = blocks human ALR sulfhydryl oxidase activity; purified ALR, DTT oxidation, H2O2 HRP-luminol luminescence; inhibition, % (no concentration beside the values); hit rate 3.8% among 290,000; AID 485317;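 active = mean and each replicate at 75% or more; inconclusive = only one of the two met; inactive = neither met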;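 note: stock transfer was 7.5 nL into about 7.5 µL; 0% = neutral wells and 100% = wells with inactivated enzyme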
Target sequence (P55789 whole entry, looked up): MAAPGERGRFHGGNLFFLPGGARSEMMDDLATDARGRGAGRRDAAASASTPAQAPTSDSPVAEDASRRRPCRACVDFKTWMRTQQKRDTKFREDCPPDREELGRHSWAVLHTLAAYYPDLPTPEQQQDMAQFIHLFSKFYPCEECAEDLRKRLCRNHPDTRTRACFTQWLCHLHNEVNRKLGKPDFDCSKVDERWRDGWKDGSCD
Ecoli rRNA inh = inhibits bacterial ribosomal RNA function over humanized ribosomes | E. coli WT GFP vs humanized-ribosome RFP mutants, fluorescence, 24 h; stronger effect = lower value; DMSO median 0, no signal -100 | GFP signal change (wild-type ribosome), % (concentration not given with the values) | hit rate 1.6% among 350,000 | AID 720706;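 active = significant combined selectivity score with lowered wild-type GFP, culture density cut under 30%, mutant RFP and density less affected; inactive = any of these conditions unmet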; note: one replicate is shown; some compounds called inactive have numbers as strong as hits
Vif A3G = inhibitors of Vif binding to APOBEC3G peptide, primary screen, biochemical, TR-FRET, GST-Vif 1-94, biotin-A3G peptide, dose response retest (AID 1117319). hit rate 0.57% among 260,000. inhibition, %; hits with a dose series show IC50 in µM. TR-FRET GST-Vif / biotin-A3G peptide binding; higher % means a stronger effect; test concentration not given here; strong numbers were not always called active;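 active = above the screen mean plus three standard deviations and confirmed in dose response; inconclusive = results disagree or hit not tested in dose response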;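 note: Vif residues 1-94 fused to GST binding biotinylated APOBEC3G peptide 110-148; 0% = full assay without inhibitor and 100% = GST in place of GST-Vif; retest series ran down from 100 µM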
AF4-AF9 inh = blocks AF4 peptide binding to human AF9 | P42568 | AID 651704 | AlphaScreen, biotin-AF4 peptide binding to FLAG-AF9 | hit rate 0.47% among 350,000 | inhibition, % at 10 µM;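 active = every replicate reaching a set inhibition limit, whatever the replicate mean, cut at about 25% in these data; inconclusive = mean inhibition reaches that limit but some replicates miss it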;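 note: 0% = plate neutral control median and 100% = total signal loss; the record names both 10 and 1 µM as test concentration; the first replicate is given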
Ecoli growth = inhibitors of Escherichia coli growth. hit rate 0.21% among 330,000. OD600 absorbance (test concentration not listed). OD600, 23 h; stronger effect = lower value;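 active = OD600 absorbance below the run mean of sample wells minus 3.6 SD, in any replicate, cut at about 0.56 in these data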;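 note: stock transfer was 300 nL into about 60 µL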
HNF4A DNA FP = change in binding of human HNF4 alpha to DNA; activity change, % at 10 µM; P41235; hit rate 0.3% among 360,000; HNF4a-FITC DNA binding, fluorescence polarization, 1 h; AID 1224865; in the data active = activity change above about 30%, passing the limit was not always enough;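 note: controls were the assay level and a saturating level of protein; the project sought stronger binding though the title names inhibitors; some compounds called inactive have numbers as strong as hits; positive values seem to mean higher polarization but the record does not say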
Target sequence (P41235 whole entry, looked up): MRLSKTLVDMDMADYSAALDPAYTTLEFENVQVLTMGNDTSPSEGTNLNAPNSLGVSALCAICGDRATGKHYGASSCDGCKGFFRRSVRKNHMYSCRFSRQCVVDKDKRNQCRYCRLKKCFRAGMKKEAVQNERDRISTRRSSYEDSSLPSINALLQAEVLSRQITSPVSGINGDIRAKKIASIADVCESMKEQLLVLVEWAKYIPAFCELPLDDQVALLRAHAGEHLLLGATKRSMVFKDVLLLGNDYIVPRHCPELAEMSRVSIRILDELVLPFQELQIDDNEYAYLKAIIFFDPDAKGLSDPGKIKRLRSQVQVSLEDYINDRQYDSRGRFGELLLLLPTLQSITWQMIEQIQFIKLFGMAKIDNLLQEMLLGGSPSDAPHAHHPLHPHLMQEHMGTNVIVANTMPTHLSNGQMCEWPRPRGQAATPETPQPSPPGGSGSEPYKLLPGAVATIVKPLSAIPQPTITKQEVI
FGF22 binding = binders of recombinant human FGF22 by thermal shift | Q9HCT0 | SYPRO orange fluorescence; percent of sucrose octasulfate shift, DMSO zero | calls only at 9.99 µM | hit rate 1.5% among 340,000;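 active = melting point raised past a set limit in the mean and every replicate; inconclusive = no clear call; three in four hits are not shown here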
Target sequence (Q9HCT0 whole entry, looked up): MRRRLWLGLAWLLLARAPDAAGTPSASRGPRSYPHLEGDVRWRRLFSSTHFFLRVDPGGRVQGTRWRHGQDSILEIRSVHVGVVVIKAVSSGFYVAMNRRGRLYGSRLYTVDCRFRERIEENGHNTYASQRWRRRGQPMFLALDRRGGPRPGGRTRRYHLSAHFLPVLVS
Ecoli rRNA inh OD600 = recorded beside Ecoli rRNA inh, whose call it bears; OD600 change, %; measured here: OD600 growth;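 optical density of the mix in the first replicate; 0 = DMSO median and -100 = no signal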
Ecoli rRNA inh RFP = also measured in Ecoli rRNA inh; calls as there; RFP signal change, %; measured here: RFP humanized mutant strains;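 first replicate; 0 = DMSO median and -100 = no signal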
Numbers without * were called inactive; i = inactive; ? = inconclusive; / = not tested or not shown; & = joins results of further samples.

entry | smiles | FGF22 binding | Vif A3G | Ecoli growth | ALR H2O2 inh | HNF4A DNA FP | AF4-AF9 inh | Ecoli rRNA inh RFP | Ecoli rRNA inh OD600 | Ecoli rRNA inh
1 | CC(CC(=O)Nc1cc(S(=O)(=O)N2CCOCC2)ccc1OCC(F)(F)F)c1ccccc1 (stereo not drawn) | i | / | 0.7 | / | -5.4 | -1.7 | 1.7 | -1 | 1
2 | O=C1CC(N2CCN(c3ccccc3F)CC2)C(=O)N1c1ccc(F)cc1 (stereo not drawn) | / | -4% | 0.7 | -14 | -2.2 | / | / | / | /
3 | CO[C@@H]1CC[C@H]2CCN(C)C(=O)[C@H](C)[C@H](OC)CN(C)C(=O)c3cc(C#N)ccc3OC[C@@H]1O2 | i | / | / | / | / | 9.3 | -3.4 | -1 | 2
4 | COC(=O)C1(CCSC)NC(c2ccc(O)cc2)C2C(=O)N(c3ccc(F)cc3)C(=O)C21 (stereo not drawn) | i | / | 0.71 | -3 | -2.4 | 0.8 | 5.3 | 21 | 4
5 | COc1ccc(NC(=O)c2c(F)cccc2F)cc1S(=O)(=O)Nc1ccc(Br)cc1 | i | 7% | 0.67 | / | 0.7 | -1.8 | -14 | -22 | -20
6 | COc1ccc(C(=O)Nc2nc(N)n(-c3ccccc3)n2)cc1OC | / | -1% | 0.78 | 1 | 1.5 | / | / | / | /
7 | Cc1ccc(-c2csc(=Nc3cccnc3)n2CCCN2CCCC2=O)cc1C | / | 2% | 0.69 | 69 | 3.1 | / | / | / | /
8 | Cc1ccc(CSc2nnc(-c3cccc(S(=O)(=O)N4CCOCC4)c3)n2C2CCCC2)cc1 | / | 1% | 0.69 | -2 | -0.9 | / | / | / | /
9 | CCc1ncc(C(O)c2cccc(OC)c2OC)n1C (stereo not drawn) | i | 5% | 0.69 | 0 | -2.6 | 2.7 | -11 | 2 | 15
10 | O=C(C1CC=CCC1)N1CCN(C(=O)C2CC=CCC2)CC1 (stereo not drawn) | / | ? | 0.7 | -6 | 0.3 | / | / | / | /
11 | O=C(O)C(CCCCN1C(=O)C2C3C=CC(C3)C2C1=O)N1C(=O)C2C3C=CC(C3)C2C1=O (stereo not drawn) | / | 27% | 0.75 | -7 | 3.7 | / | / | / | /
12 | CCn1c(NCc2ccc3c(c2)OCO3)nc2ccccc21 | / | -1% | 0.69 | 33 | 5.2 | / | / | / | /
13 | Cn1c(=S)n(CCC(=O)O)c2ccccc21 | i | -5% | 0.7 | / | -0.9 | -3.8 | -0.7 | 4 | 2
14 | O=C(C[C@@H]1CC[C@H]2[C@@H](COC[C@H](O)CN2C(=O)c2cnccn2)O1)NCc1ccccc1 | i | / | / | / | / | -0.9 | -2.9 | 8 | 3
15 | Cc1cccc(S(=O)(=O)N(C)C[C@H]2OCc3cn(nn3)CCCC(=O)N([C@@H](C)CO)C[C@@H]2C)c1 | i | 1% | / | / | -0.5 | -3.2&-8.8&-1.6 | -1.8&-0.3 | 8&7 | 6&-1
16 | COCCN1CC(C(=O)NCc2ccccc2-n2ccnc2C)CCC1=O (stereo not drawn) | i | / | 0.7 | -4 | -4.5 | -1.1 | -1.8 | 3 | 3
17 | C[C@@H]1CN([C@@H](C)CO)C(=O)CCCn2cc(nn2)CO[C@H]1CN(C)C(=O)c1ccc(N2CCN(C)CC2)cc1 | i | / | / | / | / | -1.7&-2.0 | 0.8&3.4 | -4&10 | 0&21
18 | NC(=O)c1ccc(-c2noc(-c3cccc(Cl)c3)n2)cc1 | i | / | 0.72 | -2 | -4.5 | -2.1 | -1.2 | 19 | 24
19 | CC(C)(C)Nc1nc(SCC(=O)Nc2ccccc2)nc(N2CCOCC2)n1 | i | 3% | 0.7 | / | 2.4 | 2.6 | 8.4 | -20 | -15
20 | O=C(CNC1C(=O)Nc2ccccc21)Sc1ccccc1 (stereo not drawn) | / | 14% | 0.79 | 29 | 0.2 | / | / | / | /
21 | Cc1ccc(S(=O)(=O)N[C@H]2CC[C@H](CC(=O)NCCc3ccncc3)O[C@@H]2CO)cc1 | i | / | / | / | / | -0.1 | 0.0 | 7 | 6
22 | CCOC(=O)c1ccc(NC(=O)CN2C(=O)NC3(CCC(C)CC3)C2=O)cc1 (stereo not drawn) | i | -10% | 0.68 | -4 | -2.3 | -0.8 | -2.7 | -8 | 1
23 | CCC(=O)Nc1ccc2c(c1)OC[C@@H](C)N(Cc1cncnc1)C[C@@H](C)[C@H](OC)CN(C)C2=O | i | / | / | / | / | -2.3 | -1.2 | 10 | 1
24 | C[C@@H]1CN([C@@H](C)CO)C(=O)c2cc(-c3ccncc3)cnc2O[C@H]1CN(C)C(=O)C1CCCCC1 | i | / | / | / | / | -2.8 | -0.1 | 0 | 4
25 | CC(OC(=O)C1CC(=O)N(Cc2ccccc2)C1)C(=O)Nc1ccccc1[N+](=O)[O-] (stereo not drawn) | i | -1% | 0.64 | / | -1.8 | -0.2 | -0.1 | -8 | -2
26 | CCOC(=O)N1CCN(C(=O)c2ccc(Oc3ccc([N+](=O)[O-])cc3)cc2)CC1 | i | 6% | 0.75 | 12 | -5.0 | -0.1 | 3.4 | 16 | 14
27 | CCc1cc(-c2n[nH]c(=S)n2Cc2ccccc2)cs1 | / | ? | 0.62 | 92* | 0.6 | / | / | / | /
28 | CCCCC(=O)Nc1cc2nn(-c3ccc(OC)cc3)nc2cc1C | i | -5% | 0.66 | -1 | -4.9 | -2.5 | 1.8 | 7 | 11
29 | CCC(=O)N1Cc2cc(C(=O)Nc3nccs3)nc(-c3cccc(-c4ccccc4OC)c3)c2[C@H]1CCO | i | / | / | / | 3.7 | -17&2.8 | -0.1&9.2 | 5&1 | -1&-3
30 | CCC(=O)N(C)C[C@H]1Oc2cc(C#CC3CCCCC3)ccc2S(=O)(=O)N([C@@H](C)CO)C[C@H]1C | i | / | / | / | / | 4.2 | 22 | -28 | -1
31 | O=C(C[C@H]1C[C@@H]2c3cc(NC(=O)Nc4ccccc4F)ccc3O[C@@H]2[C@@H](CO)O1)NC1CCCCC1 | i | / | / | / | / | -8.5 | 0.8 | -11 | -7
32 | CCN1CCN(C(=O)c2ccc3c(=O)n(Cc4ccccc4OC)c(=S)[nH]c3c2)CC1 | / | -4% | 0.64 | 13 | 3.6 | / | / | / | /
33 | CCC(C)NC(=O)c1cc(-c2ccc(OC)cc2)on1 (stereo not drawn) | / | 11% | 0.6 | / | -0.5 | / | / | / | /
34 | CSCCC(NC(=O)OCc1ccccc1)NC(=O)OCc1ccccc1 | i | / | / | / | -2.3 | 1.0 | 2.3 | 12 | 6
35 | COC(=O)c1ccc(OC(=O)CN2C(=O)c3ccccc3C2=O)cc1 | i | / | 0.71 | / | 4.8 | -1.5 | / | / | /
36 | CCN(CC)S(=O)(=O)c1ccc(Cl)c(C(=O)NC2CCCC2)c1 | / | 16% | 0.72 | -16 | -1.9 | / | / | / | /
37 | CC(C)CC#Cc1ccc2c(c1)O[C@@H](CN(C)C(=O)c1cccnc1)[C@@H](C)CN([C@H](C)CO)S2(=O)=O | i | / | / | / | / | 3.5 | -1.0 | -19 | -1
38 | Cc1cccc(CCNC(=O)c2cc(S(=O)(=O)N3CCOCC3)cn2C)c1 | i | / | 0.75 | -4 | 2.3 | -0.2 | -3.3 | 2 | -3
39 | O=C(NNC(=S)NC(=O)c1cccnc1)c1ccccc1 | / | 12% | 0.64 | 15 | 0.4 | / | / | / | /
40 | CCOc1ccc(CNc2ccc(N3CCN(Cc4ccccc4)CC3)cc2)cc1 | i | / | 0.72 | 57 | -3.9 | 14 | 0.4 | -1 | 6
41 | COC(=O)[C@H](Cc1ccccc1)NC(=O)NCc1ccc(C)cc1 | i | 3% | 0.64 | -2 | 4.0 | -4.4 | 1.8 | -16 | -7
42 | CC1CC1c1ccc(/C=C(\C#N)C(=O)Nc2ccccc2Cl)o1 (stereo not drawn) | i | / | 0.7 | / | 2.9 | 8.1 | -4.4 | -14 | -20
43 | CCc1nc2ccc(C(=O)N3CCN(C)CC3)cn2c1N(C)CCC(C)C | i | / | / | / | -1.5 | 3.2 | 0.9 | 13 | 10
44 | O=C(CCC(=O)N1CCOc2ccccc21)NC1CCCCCC1 | i | / | 0.78 | -1 | 6.9 | -12 | -4.8 | 13 | 3
45 | CC1(C)Cc2noc(N)c2C(C)(C)N1OC(=O)c1ccccc1 | / | 1% | 0.73 | 5 | -1.8 | / | / | / | /
46 | COc1ccc2c3c(n(C)c2c1)[C@@H](CO)N(Cc1ccc2c(c1)OCO2)CC31CCN(C)CC1 | i | / | / | / | / | 4.7 | -0.6 | 7 | 4
47 | COc1ccc(C)cc1S(=O)(=O)N1c2ccccc2CC1C (stereo not drawn) | / | 0% | 0.63 | -5 | -0.2 | / | / | / | /
48 | CC1CCN(Cc2nnnn2-c2cccc([N+](=O)[O-])c2)CC1 | / | -7% | 0.7 | -4 | 1.6 | / | / | / | /
49 | Cc1ccc(S(=O)(=O)N2CCN(c3nc(C(C)C)c4c(c3C#N)CC(C)(C)OC4)CC2)cc1 | / | -8%&6% | 0.71 | -9 | 6.5 | / | / | / | /
50 | COc1cc(NC(=O)C2CCCCC2)c(OC)cc1NC(=O)c1ccco1 | / | ? | 0.71 | / | -1.3 | / | / | / | /

Next section
entry | smiles | FGF22 binding | Vif A3G | Ecoli growth | ALR H2O2 inh | HNF4A DNA FP | AF4-AF9 inh | Ecoli rRNA inh RFP | Ecoli rRNA inh OD600 | Ecoli rRNA inh
51 | O=C(Cn1cc(C(F)(F)F)cc(Cl)c1=O)NCCc1ccc(Cl)cc1Cl | i | 1% | 0.71 | / | 5.8 | 3.8 | 1.8 | 9 | 10
52 | Cc1[nH]c2ccccc2c1/C=N/NC(=O)CCC(=O)NCc1ccccc1 | / | 6% | / | 55 | 8.7 | -1.3 | -2.6 | -12 | -6
53 | Cc1cccc(C)c1NC(=O)C1(N2CCN(C(=O)c3ccco3)CC2)CCCCC1 | i | -8% | 0.68 | 1 | -2.9 | -0.6 | / | / | /
54 | CC(=O)Nc1ccccc1OCC(=O)NCCc1ccc(Cl)cc1Cl | i | 3% | 0.7 | -6 | 2.0 | 3.8 | -5.9 | -18 | -13
55 | COCCCN1C(=O)C(=O)/C(=C(/O)c2ccc(OC(C)C)c(C)c2)C1c1ccncc1 (stereo not drawn) | / | -7% | / | -3 | -2.2 | / | / | / | /
56 | COC(=O)C1=C(N)Oc2cc(C)n(CC3CCCO3)c(=O)c2C1c1ccc(Cl)cc1 (stereo not drawn) | / | -6% | 0.76 | 2 | -1.0 | / | / | / | /
57 | Cc1ccc(S(=O)(=O)N2CCOCC2)cc1NC(=O)COc1ccc2c(C)cc(=O)oc2c1 | i | / | 0.67 | -2 | -3.0 | -0.5 | 0.2 | 2 | -2
58 | Fc1cccc(F)c1[B-](F)(F)F | i | / | / | / | -3.6 | -2.4 | / | / | /
59 | CSCC[C@H](N)C(=O)NCC1CCC(C(=O)Nc2ccc3c(c2)OCO3)CC1 (stereo partly drawn) | i | / | 0.78 | -4 | 1.4 | -2.1 | / | / | /
60 | CCN(C(=O)COC(=O)CSc1ccc(C)cc1C)c1c(N)n(Cc2ccccc2)c(=O)[nH]c1=O | i | / | / | / | 4.0 | 9.2 | -0.4 | 19 | 10
61 | C[C@@H]1CN([C@H](C)CO)C(=O)c2cc(-c3ccccc3F)cnc2O[C@H]1CN(C)C(=O)C1CCOCC1 | i | / | / | / | / | -3.0 | -0.7 | 10 | 6

Some of the compounds tested; rates above refer to the full screens.
